Rce1 inh = blocks yeast Ras-converting enzyme. Q03530. yeast membranes, quenched prenylated peptide cleavage fluorescence. calls only. 290,000 tested, 0.27% active. AID 2563;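 active = fall in fluorescence gain of 50% or more versus controls, with final raw signal at or below 3038400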;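 also: plate controls were neutral control wells for no effect and wells lacking membranes for full effect; tested at 10 µM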
CSC inhib = cancer stem cell inhibition. 300,000 tested, 1.1% active. inhibition, % at 7.5 µM. AID 2717. cancer stem cell-like cells viability, luminescence;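 active = mean at 75% or more and at least half the replicates too; tested in HMLE shEcad cells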;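 also: 0% = median of negative and 100% = median of positive control wells; the first replicate is given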
MT1-MMP act inh = inhibitors of human MT1-MMP activation; GFP/RFP ratio change, % at 20 µM; 360,000 tested, 0.061% active; P50281; HT1080 RFP-PRO-GFP cells, GFP/RFP ratio fluorescence, overnight; percent of plate control window, DMSO zero;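 active = GFP/RFP ratio change of at least 30% with cell ATP level not reduced by more than half and red fluorescence within 50% of control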; also: strong numbers were not always called active
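Assay system: HT1080 RFP-PRO-GFP cells | Dosing: 20 µM single dose, 1% DMSO | Incubation: Cells overnight before dosing, compound overnight, 37 °C, 5% CO2 | Evaluation: GFP/RFP fluorescence ratio | Control set: DMSO-only wells and HT1080 RFP-L50D-GFP cell wells as references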
Yeast UUG start = modulators of start codon recognition fidelity in yeast | AID 602363 | activity score, % at 18.7 µM | 350,000 tested, 0.13% active | S. cerevisiae UUG-firefly luciferase reporter, luminescence/redox ratio;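 active = replicate mean at a twofold rise or more, about +100% in these data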;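 also: firefly luciferase made from a UUG start codon reports start codon fidelity; reporter light over untreated wells divided by growth signal over untreated wells; some hits fall short of that in this replicate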
Env fusion inh = blocks HIV Env-driven cell-cell fusion. HeLa-JRFL Env/CEM21 cell fusion, luciferase. inhibition, % at 12.3 µM. 360,000 tested, 1.1% active;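 active = mean replicate inhibition score of at least 50 and every replicate individually at or above 50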;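 also: 0% = plate neutral controls and 100% = maraviroc near 300 nM; one replicate is shown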
PABP FP inh = blocks human PABP binding to poly(A) RNA; inhibition, % at 35 µM; 290,000 tested, 1% active; fluorescence polarization;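 active = 50% or more with normal probe brightness, or confirmed in later tests; about a fifth of its hits are not listed in these tables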;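 also: calls also rest on retests at 20 µM and on dose response follow-up; controls were probe without protein and protein plus probe with vehicle; some compounds called inactive have numbers as strong as hits; many hits fall short of the cut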
Target sequence (P11940 whole entry, looked up): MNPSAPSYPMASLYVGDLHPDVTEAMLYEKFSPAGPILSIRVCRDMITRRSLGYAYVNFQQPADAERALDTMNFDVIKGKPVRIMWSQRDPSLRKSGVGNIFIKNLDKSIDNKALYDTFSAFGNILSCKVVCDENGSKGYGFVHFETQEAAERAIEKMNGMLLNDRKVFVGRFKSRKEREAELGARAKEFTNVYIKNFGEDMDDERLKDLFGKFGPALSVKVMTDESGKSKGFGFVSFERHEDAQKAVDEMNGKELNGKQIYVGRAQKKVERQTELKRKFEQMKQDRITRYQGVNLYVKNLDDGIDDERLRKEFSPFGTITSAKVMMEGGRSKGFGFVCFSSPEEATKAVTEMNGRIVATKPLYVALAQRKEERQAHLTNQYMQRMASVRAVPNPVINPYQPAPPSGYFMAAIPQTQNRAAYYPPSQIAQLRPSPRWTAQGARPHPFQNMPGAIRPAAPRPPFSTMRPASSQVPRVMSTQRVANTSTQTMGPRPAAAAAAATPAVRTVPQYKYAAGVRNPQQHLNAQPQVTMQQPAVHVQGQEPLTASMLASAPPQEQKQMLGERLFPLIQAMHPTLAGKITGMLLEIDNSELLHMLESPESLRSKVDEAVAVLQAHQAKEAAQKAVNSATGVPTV
eIF4H FP inh = inhibitors of RNA binding by human eIF4H; Q15056; inhibition, % at 35 µM; 290,000 tested, 0.94% active; eIF4H fluorescence polarization binding assay;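 active = 50% or more with normal probe brightness, or confirmed in later tests; about a fifth of its hits are not listed in these tables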;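 also: calls also rest on retests at 20 µM and on dose response follow-up; 0% = protein and probe with vehicle and 100% = probe without protein; strong numbers were not always called active; many hits fall short of the cut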
eIF4H FP inh retest = recorded beside eIF4H FP inh, whose call it bears; inhibition, %; compound at 20 µM; confirmation average;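 mean of two retest wells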
PABP FP inh retest = recorded beside PABP FP inh, whose call it bears; inhibition, %; compound at 20 µM; confirmation repeats;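 mean of two retest wells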
MT1-MMP act inh RFP = second read-out of MT1-MMP act inh, no call of its own (marks repeat the call); RFP signal change, %; measured here: RFP expression control read;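 0 = vehicle wells; hits needed this value within 50% of zero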
* = called active by the depositor; i = inactive; / = not tested or not shown. Some of the compounds tested (hit frequency here may not be typical).

SMILES | Rce1 inh | CSC inhib | MT1-MMP act inh | MT1-MMP act inh RFP | Yeast UUG start | Env fusion inh | PABP FP inh | eIF4H FP inh | others
CC(C)c1ccc(-c2nn(-c3ccccc3)cc2C2C(C#N)=C(N)OC3=C2C(=O)CC(C)(C)C3)cc1 (configuration not stated) | i | 20.1 | -16.3 | -7.3 | / | 10.7 | -2.0 | -5.5
CCC(C)(C)NC(=O)C(c1ccccn1)N(C(=O)c1csnn1)C1CCCCC1 (configuration not stated) | / | -7.7 | -3.2 | -1.7 | / | 29.0 | 7.5 | -5.1
CCCC(=O)NC(C)c1nc2ccccc2n1CC (configuration not stated) | i | 10.8 | 3.1 | 5.8 | -0.3 | -27.4 | 8.9 | 4.0
NC(=O)CC(NC(=O)Cc1cccc2ccccc12)c1ccc(NCCc2ccccc2F)c([N+](=O)[O-])c1 (configuration not stated) | i | 1.0 | 3.0 | 0.3 | -19.0 | -30.0 | -15.4 | 4.3
Cc1ccc([C@@H]2C[C@H]3[C@@H](CN2S(=O)(=O)c2ccc(Cl)cc2)C(=O)C[C@@H](c2ccc(C)cc2)N3S(=O)(=O)c2ccc(Cl)cc2)cc1 | / | / | -1.3 | -1.6 | -1.3 | -14.2 | / | /
COc1ccc(C(c2nnnn2Cc2ccc(F)cc2)N2CCN(c3ccccc3)CC2)cc1 (configuration not stated) | i | / | -10.1 | -13.4 | -6.1 | / | -8.5 | -4.4
CCOc1ccccc1NC(=O)Nc1c(C)n(-c2ccccc2)c(=O)n1C | i | -0.3 | 1.5 | -7.0 | / | -22.7 | 0.9 | -3.3
Cc1ccc(C(=O)N=c2sccn2C)o1 | i | -7.0 | -0.5 | 1.5 | -12.2 | -2.5 | 5.7 | 1.8
COc1ccc(OC)c2sc(NC(=O)C3COc4ccccc4O3)nc12 (configuration not stated) | i | 24.0 | -3.7 | -4.1 | 4.5 | -32.7 | / | /
COc1ccc(C(=O)CCC(=O)NCCc2ccccc2F)cc1 | i | -18.5 | 0.5 | 1.7 | -16.9 | 14.1 | 2.2 | -3.2
CC1CCc2c(sc3ncn(Cc4ccc(C(=O)O)cc4)c(=O)c23)C1 (configuration not stated) | i | -10.2 | -0.1 | -0.9 | -13.1 | 11.3 | 0.0 | 1.5
COc1ccc(C(=O)NCC(=O)OCC(=O)Nc2ncc(Cl)cc2Cl)cc1[N+](=O)[O-] | / | -9.2 | 1.7 | 10.8 | -8.7 | / | / | /
C=CCC1(O)CC(c2ccco2)NC(c2ccco2)C1CCC (configuration not stated) | i | -13.0 | -10.8 | 0.5 | / | -25.7 | 36.4 | 32.3
COc1cc(NCCCn2ccc(NC(=O)OCc3ccccc3)nc2=O)cc(OC)c1OC | / | / | 3.1 | 0.8 | -5.5 | -61.5 | / | /
O=C(NCc1cccnc1)c1cc(Sc2ccc(F)cc2F)nc2ccccc12 | i | 6.3 | -10.0 | -19.4 | -16.0 | 38.2 | 4.2 | -11.0
NC(=O)c1ccccc1OCC(=O)Nc1ccc2c(c1)OCCO2 | / | / | 2.0 | -0.1 | -14.2 | -75.3 | / | /
Cc1cc(C)cc(NC(=O)CCN2CCOCC2)c1 | i | -12.1 | 0.6 | 2.0 | -11.5 | 9.3 | 6.0 | -14.9
COc1ccc(CNCc2cccn2C)cc1 | i | -4.8 | -2.3 | 2.2 | 5.7 | -5.3 | -3.8 | -4.5
COc1ccc(CCNC(=O)CCCC(=O)n2nc(C)c3ccccc32)cc1OC | i | -7.7 | 0.3 | 0.4 | -20.2 | 4.3 | 8.5 | -11.2
Cc1ccc(/C=C2\C(=O)Nc3ccccc32)o1 | i | 17.9 | -3.2 | -0.7 | / | -1.2 | 1.4* | 87.4* | eIF4H FP inh retest=85.8*;PABP FP inh retest=62.9*
O=C(NC(Cc1ccccc1)C(=O)N1CCN(S(=O)(=O)c2ccccc2)CC1)c1ccccc1 (configuration not stated) | i | 12.5 | -9.6 | -2.2 | 18.7 | 15.7 | 3.6 | -0.7
COc1cccc(CN2CCNC(=O)C2CC(=O)N(C)Cc2nc(C)cs2)c1OC (configuration not stated) | i | -19.7 | -0.6 | -0.2 | 12.0 | 2.2 | -2.0 | 2.7
O=C(Nc1ccc(Br)cc1)c1cccc(S(=O)(=O)Nc2cnc3ccccc3c2)c1 | i | 51.2 | 2.5 | -17.5 | / | -122.0 | -17.6 | -5.0
CC(C)c1cc(C(=O)N2CCN(C(c3ccccc3)c3ccccc3)CC2)no1 | i | 6.2 | -4.4 | -3.8 | / | / | 7.8 | -0.3
CC(Sc1ccc2nnc(-c3ccc(F)cc3)n2n1)C(=O)O (configuration not stated) | i | -8.4 | 3.7 | 3.5 | -20.4 | -11.5 | -4.6 | -4.4

Five entries already listed, ordered by length of the SMILES, high to low:
SMILES | Rce1 inh | CSC inhib | MT1-MMP act inh | MT1-MMP act inh RFP | Yeast UUG start | Env fusion inh | PABP FP inh | eIF4H FP inh | others
CC1CCc2c(sc3ncn(Cc4ccc(C(=O)O)cc4)c(=O)c23)C1 (configuration not stated) | i | -10.2 | -0.1 | -0.9 | -13.1 | 11.3 | 0.0 | 1.5
O=C(NCc1cccnc1)c1cc(Sc2ccc(F)cc2F)nc2ccccc12 | i | 6.3 | -10.0 | -19.4 | -16.0 | 38.2 | 4.2 | -11.0
NC(=O)c1ccccc1OCC(=O)Nc1ccc2c(c1)OCCO2 | / | / | 2.0 | -0.1 | -14.2 | -75.3 | / | /
COc1ccc(C(=O)CCC(=O)NCCc2ccccc2F)cc1 | i | -18.5 | 0.5 | 1.7 | -16.9 | 14.1 | 2.2 | -3.2
Cc1ccc(/C=C2\C(=O)Nc3ccccc32)o1 | i | 17.9 | -3.2 | -0.7 | / | -1.2 | 1.4* | 87.4* | eIF4H FP inh retest=85.8*;PABP FP inh retest=62.9*

(more compounds)
SMILES | Rce1 inh | CSC inhib | MT1-MMP act inh | MT1-MMP act inh RFP | Yeast UUG start | Env fusion inh | PABP FP inh | eIF4H FP inh | others
O=c1c2ccccc2nc2n1C(CSCc1ccc(Cl)cc1Cl)CS2 (configuration not stated) | i | -11.7 | -7.2 | -28.2 | -6.7 | / | -3.1 | 6.9
Cc1ccc(S(=O)(=O)N(C)Cc2ccc(C(=O)N/N=C/c3ccc(OC(F)F)cc3OC(F)F)cc2)cc1 | i | 5.4 | 2.8 | -18.2 | 20.4 | 66.2* | -23.9 | 4.3
Cc1csc(SCC(=O)NCc2ccccc2)n1 | i | 7.3 | -2.6 | 3.5 | / | -6.8 | 9.3 | 11.7
CCn1nc(NS(=O)(=O)c2ccc([N+](=O)[O-])cc2)c2cc3ccc(C)cc3nc21 | i | 20.2 | 0.2 | -0.2 | -1.5 | 15.9 | 19.6 | -3.5
CCn1cc(CN2CCc3c([nH]c4ccccc34)C2c2cccc(OC)c2OC)c(C)n1 (configuration not stated) | i | -5.1 | -1.5 | -2.9 | -5.3 | 10.1 | -0.1 | -4.6
Cc1ccc(NC(=O)Cn2ncc3c([nH]c4ccccc43)c2=O)cc1Cl | i | 6.6 | 4.2 | 0.6 | -17.4 | 2.1 | -4.2 | -0.6
Nc1nnc(SCc2nc3scc(-c4ccccc4)c3c(=O)[nH]2)s1 | i | 5.0 | -35.1 | -18.9 | / | 1.5 | 33.6 | 50.9 | eIF4H FP inh retest=-1.1;PABP FP inh retest=49.2
COc1ccc(-c2nn(-c3ccccc3C)cc2CNCCc2cnc[nH]2)cc1F | i | -1.4 | 5.8 | 2.8 | -12.7 | -19.5 | -4.3 | -9.4
CC(=O)Nc1ccc(S(=O)(=O)N(C)CC(=O)NCCC2=CCCCC2)cc1 | i | / | 2.4 | -2.0 | -16.9 | -4.8 | -9.6 | -2.9
CCOc1ccc(C(=O)CCC(=O)NN2CCCCC2)cc1 | / | / | -0.4 | 2.2 | -4.9 | -25.0 | / | /
CC(C)C(OC(=O)c1cccs1)C(=O)NCc1ccc2c(c1)OCO2 (configuration not stated) | i | -13.2 | -1.1 | 1.3 | -6.6 | 11.5 | 3.6 | -2.8
CCOc1ccc(Oc2ccccc2NC(=O)CCc2nc3ccccc3c(=O)[nH]2)cc1 | / | / | -0.9 | -13.2 | -16.4 | 11.0 | / | /
CCOC(=O)c1c(NC(=O)COC(=O)CCOc2cc(C)ccc2C)sc(C(=O)N(C)C)c1C | / | / | -5.4 | 1.1 | -2.9 | 6.9 | / | /
CCOc1ccc(NC2=NC(C(=O)NCc3ccccc3)CC(=O)N2)cc1 (configuration not stated) | i | 1.1 | -7.6 | -3.4 | -15.1 | / | 3.7 | 0.4
Cc1ccc2c(c1)cc1c(=O)[nH]ncn12 | i | -8.8 | -2.7 | -1.6 | -19.2 | / | 5.2 | 7.6
Cc1ccsc1C(=O)N/N=C/c1ccc([N+](=O)[O-])cc1 | i | / | -3.7 | 2.9 | / | -239.9 | -2.0 | 52.5 | eIF4H FP inh retest=-19.2;PABP FP inh retest=8.4
Cc1ccc(C)c(S(=O)(=O)N2CCCOC2CNC(=O)C(=O)NCCCn2ccnc2)c1 (configuration not stated) | i | -4.9 | -0.6 | 3.6 | / | -14.9 | -10.3 | 7.0
Cc1cccc(NS(=O)(=O)c2c(C)n[nH]c2C)c1 | i | -4.3 | 3.8 | 3.5 | -26.2 | -134.2 | 5.1 | -0.9
CCN(c1ccccc1)S(=O)(=O)c1ccc2[nH]c(=O)[nH]c2c1 | i | 2.4 | -1.1 | 1.7 | / | -13.0 | -0.4 | 32.2
COc1ccc(OC)c(C2=NOC(C(=O)Nc3ccccc3SC)C2)c1 (configuration not stated) | i | -14.0 | -5.1 | -1.0 | -6.2 | 32.7 | -0.9 | -2.6
COc1cc(-c2noc(C)c2C(=O)N[C@@H](CO)Cc2ccccc2)cc(OC)c1OC | / | / | 4.2 | 4.8 | -5.5 | 11.0 | / | /
COc1ccc(CNc2nc(NCc3ccc(OC)cc3)n(C(=O)c3ccccc3[N+](=O)[O-])n2)cc1 | i | -10.8 | -4.0 | -6.3 | -20.6 | 8.4 | -8.3 | -4.0
O=C(C1CCCCC1)N1C[C@@H](n2cc(-c3ccc(F)cc3)nn2)[C@H](O)C[C@@H]1c1ccccc1 | / | / | 4.5 | 0.0 | 8.6 | -88.1 | / | /
Cc1ccc(NCc2nnc(SCC(=O)N3CCc4ccccc43)n2C)cc1 | i | -6.4 | 0.4 | -1.0 | -19.3 | -28.5 | 2.6 | -11.6
Cc1ccccc1OCc1n[nH]c(=S)n1-c1cccc(Cl)c1 | i | -11.8 | 3.0 | -2.4 | -11.4 | -52.4 | -1.7 | 1.4

Next part:
SMILES | Rce1 inh | CSC inhib | MT1-MMP act inh | MT1-MMP act inh RFP | Yeast UUG start | Env fusion inh | PABP FP inh | eIF4H FP inh | others
O=C(CN1C(=O)c2cccc([N+](=O)[O-])c2C1=O)N1CCc2ccccc2C1 | / | / | 1.2 | 7.2 | -22.0 | 7.3 | / | /
O=C(CCl)c1ccc2[nH]c(=O)oc2c1 | i | -18.9 | -2.4 | 8.0 | -16.4 | -23.4 | 1.4 | 2.7
Cc1ccc(OCC(=O)Nc2ccc3oc(=O)ccc3c2)c(C)c1 | i | / | 1.4 | -7.5 | -7.6 | 5.6 | 5.4 | -5.9
Cc1cc(NC(=O)C(C)SCC(=O)Nc2ccccc2N2CCCCC2)no1 (configuration not stated) | i | 11.2 | -6.6 | -6.3 | / | 14.8 | / | /
CC(C)(C)NC(=O)CCCSc1nc2ccccc2s1 | i | 3.2 | -1.0 | -9.6 | / | 6.7 | -11.1 | -7.8
Cn1c2c(c3ccccc31)CCN1CCC[C@]21c1ccccc1 | i | / | -9.1 | -4.7 | 22.5 | 10.6 | -6.7 | -7.9
COc1ccc(Cn2c(N)c(C#N)c3nc4ccccc4nc32)cc1 | i | 6.4 | -33.2 | 3.5 | 12.2 | / | 2.1 | -11.0
CN(C)CCCNC(=O)c1ccc(/C=N/O)nc1 | / | / | -0.3 | 4.0 | -9.2 | 2.9 | 1.4 | -3.5
